SARS PLpro yeast: SARS-CoV PLP inhibition in yeast | S. cerevisiae expressing SARS-CoV PLpro, growth rescue; control for the full effect not named in the record | Potency, µM (doses to about 32.9 µM), without a hit: at the highest dose activity, positive = growth rescue | 330,000 compounds, 0.19% hits | AID 485353; also: 0% is about no effect; nearly all actives have a fitted effect of over 55% in size; growth read by luminescence after 48 h
Cruzain noTriton: cruzain (T. cruzi) inhibition without detergent; purified cruzain, Z-FR-AMC fluorescence, no detergent; Potency, µM, without a hit: max response, negative = inhibition, most hits filed as inhibitors; 200,000 compounds, 2.3% hits; AID 1476; active = well fitted curve in the direction sought with a large enough effect; inconclusive = small, poorly fitted or top-dose-only effect, or another doubt; inactive = no such curve, though single readings can be large; an effect the other way counts as inactive or inconclusive;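 also: plate controls were enzyme without inhibitor for no effect and buffer without enzyme for full effect; nearly all actives have a fitted effect of over 40% in size; top concentration of the series not given in the record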
Target sequence (P25779 123-467 limits assumed): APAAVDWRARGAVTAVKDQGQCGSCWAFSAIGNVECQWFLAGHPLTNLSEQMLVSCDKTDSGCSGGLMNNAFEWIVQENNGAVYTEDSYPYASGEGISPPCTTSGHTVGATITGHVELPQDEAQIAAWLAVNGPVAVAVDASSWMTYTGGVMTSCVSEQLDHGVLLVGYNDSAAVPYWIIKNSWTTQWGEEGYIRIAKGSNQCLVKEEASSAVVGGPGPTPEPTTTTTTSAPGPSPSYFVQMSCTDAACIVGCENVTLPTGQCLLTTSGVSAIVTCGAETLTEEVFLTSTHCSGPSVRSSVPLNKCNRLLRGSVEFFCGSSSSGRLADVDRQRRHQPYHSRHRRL
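Purified cruzain at 1.5 nM, pre-incubated 15 min with compound at room temperature in 100 mM sodium acetate pH 5.5, 5 mM DTT, 0.00005% Triton X-100. Reaction started with 2 uM Z-FR-AMC; AMC fluorescence increase over 60 s gives rate.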
MARV entry inh: blocks Marburg virus binding to or entry into cells; Marburg virus pseudotyped entry inhibition, cell reporter; control for the full effect not named in the record; about a third of the inactives were read at about 46 µM; AID 540276; Potency, µM (series often up to 37.8 µM), for inactives: top-dose activity change, negative = inhibition, usual class: inhibitors; 300,000 compounds, 1.8% hits; active = well fitted inhibition curve with a large enough effect; inconclusive = small, poorly fitted or top-dose-only effect, or effect the other way; inactive = flat fitted curve, though single readings scatter; tested in HEK293 cells; about a fifth of its hits are not listed in these tables; also: % is scaled to controls: 0 for no effect and ±100 for the full control effect; luciferase read-out
2A StopGo: lowers the luciferase signal of an FMDV 2A StopGo reporter | AID 1159524 | 410,000 compounds, 1.2% hits | human cells with a luciferase reporter of 2A StopGo recoding; control for the full effect not named in the record | Potency, µM (doses to about 57.9 µM), inactives show at the highest dose signal change, negative = less light; active = well fitted falling curve with a large enough effect; inconclusive = small, poorly fitted or top-dose-only effect; inactive = no such curve, though single readings can be large or run the other way; tested in HEK293T cells; also: % is scaled to controls: 0 for no effect and ±100 for the full control effect; nearly all actives have a fitted effect of over 45% in size; luciferase light after 4 h
NS1 inh: inhibitors of influenza NS1 protein function; S. cerevisiae slowed by influenza A NS1, growth recovery by OD600; AID 2326; Potency, µM (series often up to 46.1 µM), without a hit: top-dose activity, positive = more growth; 270,000 compounds, 0.4% hits; also: actives are rising curves; nearly all actives have a fitted effect of over 50% in size
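A cell-based growth assay was used: compounds that relieve NS1-induced slow growth of budding yeast raise OD600. Assay medium was yeast nitrogen base with ammonium sulphate and -URA supplement, pH 6.0, with 2% galactose.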
RE007 growth inh: less growth of the S. pombe RE007 Vpr strain; S. pombe RE007 Vpr strain, BacTiter-Glo ATP luminescence, 24 h; control for the full effect not named in the record; Potency, µM (series often up to 92.2 µM), inactives show at the highest dose activity change, negative = less growth; 360,000 compounds, 0.21% hits; AID 651644; active = well fitted falling curve with a large enough effect; inconclusive = small, poorly fitted or top-dose-only effect; inactive = no such curve, though single readings can be large or run the other way;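 also: % is scaled to controls: 0 for no effect and ±100 for the full control effect; nearly all actives have a fitted effect of over 50% in size; the assay follows cell death caused by Vpr and the record does not say whether a fall means rescue or toxicity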
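Fission yeast strain RE007, carrying one chromosomally integrated HIV-1 vpr copy, was seeded at OD 0.01 in PMG+AL medium with 23 nL pinned compound. After 24 h at 30 °C and 99% humidity, viability was read by BacTiter-Glo luminescence.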
Lassa entry inh: inhibitors of Lassa virus binding or cell entry. Lassa virus pseudotype entry inhibition, cell reporter; control for the full effect not named in the record. Potency, µM (titrated, usually from 37.9 µM), inactives show at the highest dose activity change, negative = inhibition, usual class: inhibitors. 300,000 compounds, 1.2% hits; active means well fitted inhibition curve with a large enough effect; inconclusive means small, poorly fitted or top-dose-only effect, or effect the other way; inactive means flat fitted curve, though single readings scatter; tested in HEK293 cells; also: % is scaled to controls: 0 for no effect and ±100 for the full control effect; nearly all actives have a fitted effect of over 50% in size; luciferase read-out
Cruzain Triton: cruzain (T. cruzi) inhibition with detergent. P25779. purified cruzain, Z-FR-AMC fluorescence, 0.01% Triton. Potency, µM, for the others: max response, negative = inhibition, usual class: inhibitors. 200,000 compounds, 0.43% hits; active = well fitted curve in the direction sought with a large enough effect; inconclusive = small, poorly fitted or top-dose-only effect, or another doubt; inactive = no such curve, though single readings can be large; an effect the other way counts as inactive or inconclusive;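 also: plate controls were neutral wells for no effect and buffer without enzyme for full effect; nearly all actives have a fitted effect of over 40% in size; top concentration of the series not given in the record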
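Z-FR-AMC hydrolysis (2 uM substrate) by cruzain (1.5 nM) monitored kinetically at ex 360/em 450 nm after 15 min room-temperature compound exposure; 0.01% Triton X-100, pH 5.5, 5 mM DTT.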
An asterisk follows results filed as active; ? = inconclusive; / = no result given; & = joins results of further samples; [ ] = remark or other dose. Unless noted, calls follow the shape of the dose curve; as a rule, active means well fitted rising curve with a large enough effect; inconclusive means small, poorly fitted or top-dose-only effect; inactive means no such curve, though single readings can be large or run the other way. Potency is read from the fitted curve at half-maximal effect.

structure	Cruzain noTriton	MARV entry inh	NS1 inh	SARS PLpro yeast	2A StopGo	Lassa entry inh	Cruzain Triton	RE007 growth inh
COc1cc(NC(=O)CN2CCCCCC2)cc(OC)c1	/	?	7.0%	-0.1%	-9.8%	-6.0%	/	0.8%
Cc1cc(C)c(C)c(OCC(O)CN2CCN(c3ccccn3)CC2)c1 (stereo not given)	/	0.2%[46.1 µM]	-12.2%	4.9%	-22.2%	13.6%[46.1 µM]	/	1.2%
O=C(O)c1cscc1Cc1cccs1	4.4%	/	-2.8%	/	-7.0%	/	4.9%	-17.6%
CC(=O)Nc1ccc(S(=O)(=O)NCCc2csc(C)n2)cc1	12.3%	1.4%	0.8%	20.2%	/	0.2%	-4.0%	-2.2%
O=C(CCCn1c(SCC(=O)NCCc2ccccc2)nc2ccccc2c1=O)NCC1CCCO1 (stereo not given)	/	3.7%	/	7.1%	-13.1%	5.6%	/	0.7%
C=CCSc1nnc2c(n1)[nH]c1c(C)cccc12	-7.9%	?	-44.5%	-21.7%	/	-3.9%	-2.7%	?
Cc1cc(C)nc(N(C#N)Cc2cccc3ccccc23)n1	8.8%	-6.1%[46.1 µM]	-9.5%	-9.8%	12.0%	?	5.7%	-19.4%
O=C(Nc1cc(C(F)(F)F)ccc1Cl)c1cc(S(=O)(=O)NCc2ccccc2)ccc1F	1.9%	/	/	/	6.5%	23.4%[46.1 µM]	0.3%	/

Other entries follow:
structure	Cruzain noTriton	MARV entry inh	NS1 inh	SARS PLpro yeast	2A StopGo	Lassa entry inh	Cruzain Triton	RE007 growth inh
Cc1ccccc1Nc1nnc(C)c(=O)[nH]1	1.8%	-5.9%	-1.6%	-0.6%	-9.6%	13.8%	7.7%	-7.9%
O=C(/C=C(\O)c1ccccc1)C(=O)NNC(=O)c1ccccc1[N+](=O)[O-]	/	18.2%[46.1 µM]	-3.5%	0.6%	-6.0%	-9.3%[46.1 µM]	/	18.1%
O=C(CNS(=O)(=O)c1ccccc1)NCC(=O)OCc1ccc(Br)cc1	/	1.1%	-1.0%	1.1%	0.9%	2.0%	/	-9.4%
COc1ccccc1-n1c(SCC(=O)N2CCc3ccccc32)nc2c(c1=O)SCC2	-21.8%	1.3%	?	2.4%	-21.4%	/	-8.2%	-10.1%
CCc1cccc(C)c1NC(=O)NC1COc2ccccc2C1 (stereo not given)	6.4%	/	/	/	-19.1%	1.2%[46.1 µM]	3.4%	/
CC(=O)C1=C(C)NC(C)=C(C(C)=O)C1c1cn(-c2ccccc2)nc1-c1cccs1	?	-21.3%	4.5%	-12.2%	-4.9%	-3.6%	-9.7%	-9.4%
Cc1ccc(S(=O)(=O)CC(N)=O)cc1	0.2%	17.5%	2.1%	-0.7%	/	8.6%	-0.1%	-1.9%
O=C1COc2ccc(C(=O)CSc3nc4ccccc4c(=O)n3-c3ccc(Cl)c(Cl)c3)cc2N1	/	?	-1.7%	0.7%	17.6%	-12.6%	/	7.8%

Exported as labelled records: entries from further up
Cc1ccc(S(=O)(=O)CC(N)=O)cc1
  Cruzain noTriton: 0.2%	MARV entry inh: 17.5%	NS1 inh: 2.1%	SARS PLpro yeast: -0.7%	2A StopGo: /	Lassa entry inh: 8.6%	Cruzain Triton: -0.1%	RE007 growth inh: -1.9%
O=C(CNS(=O)(=O)c1ccccc1)NCC(=O)OCc1ccc(Br)cc1
  Cruzain noTriton: /	MARV entry inh: 1.1%	NS1 inh: -1.0%	SARS PLpro yeast: 1.1%	2A StopGo: 0.9%	Lassa entry inh: 2.0%	Cruzain Triton: /	RE007 growth inh: -9.4%

Other entries follow.
structure	Cruzain noTriton	MARV entry inh	NS1 inh	SARS PLpro yeast	2A StopGo	Lassa entry inh	Cruzain Triton	RE007 growth inh
Cn1c(N)c(C(=O)COC(=O)CC2CC3CCC2C3)c(=O)n(C)c1=O (stereo not given)	/	?	-4.9%	-0.5%	-20.4%	-15.1%	/	0.9%
O=C1N(Cc2ccccc2)c2ccccc2C1(O)c1c[nH]c2ccccc12 (stereo not given)	-7.4%	-23.6%[46.1 µM]	/	/	-20.5%	-16.7%[46.1 µM]	-8.2%	/
COC(=O)/C(NC(C)=O)=C(\C)c1ccc(Cl)cc1	?	2.0%	-5.4%	5.7%	7.0%	12.0%	1.0%	9.0%
CCCN1Cc2cccc(C(=O)NC(CC(=O)OCC)c3ccc(C)cc3)c2C1=O (stereo not given)	/	4.4%[46.1 µM]	/	-4.4%	-0.9%	5.8%[46.1 µM]	/	-11.3%
N[C@@H](Cc1ccccc1)C(=O)O	2.7%&14.2%	/	-4.5%	/	12.1%	/	-0.1%&3.6%	/
CC(=O)OCc1cnc(C)c2oc(=O)c(C(=O)Nc3ccc(C)cc3Cl)cc12	7.7%	/	/	/	-4.6%	9.4%[46.1 µM]	0.3%	/
COc1ccccc1-c1noc(-c2ccc(NC3CCCCC3)c([N+](=O)[O-])c2)n1	13.4%	-1.2%[46.1 µM]	/	/	43.8%[activator]	20.2%[46.1 µM]	-6.7%	/
CC(NC(=O)c1ccc(OC2CCN(S(=O)(=O)N(C)C)CC2)cc1)C1CC1 (stereo not given)	/	?	-1.2%	0.6%	8.3%	-0.9%	/	15.5%

Next entries.
structure	Cruzain noTriton	MARV entry inh	NS1 inh	SARS PLpro yeast	2A StopGo	Lassa entry inh	Cruzain Triton	RE007 growth inh
CCOC(=O)C1(C)C=C(Nc2ccc(C(=O)O)cc2)C(=O)N1c1ccc(C(=O)O)cc1 (stereo not given)	3.9%	21.7%[46.1 µM]	/	/	0.0%	-1.4%[46.1 µM]	180.2%[activator]	/
COc1ccc(CNS(=O)(=O)c2cc(Br)cc3c2N(C(C)=O)C(C)C3)cc1 (stereo not given)	-8.3%	-18.9%&-0.1%[46.1 µM]	6.1%	-2.2%	18.5%&19.1%	-5.8%	0.5%	6.5%
O=C(CN1CCOCC1)Nc1nc2ccc(Cl)cc2s1	/	/	13.5%	-1.3%	1.4%	/	/	-7.7%
Cc1ccc2nc(N3CCOCC3)c(C=O)cc2c1	/	/	-30.3%	-5.7%	29.0%	/	/	-18.6%
COC(=O)c1cc(O)c(O)c(O)c1	0.3%	3.7%	4.8%	-1.3%	-6.0%	6.0%	1.1%	-9.3%
COc1ccc(C(=O)CNc2ccccc2CO)cc1	/	?	/	-2.7%	28.3%	?	/	6.9%
CCCn1c2ccc(F)cc2c2nnc(SCCN(CC)CC)nc21	3.98µM*	/	/	/	-22.2%	14.0%[46.1 µM]	4.47µM*	/
Cc1ccc(NC(=O)Cn2ccc([N+](=O)[O-])n2)cc1C	/	-13.1%[46.1 µM]	5.0%	-0.8%	17.1%	-13.2%	/	1.4%

Next part
structure	Cruzain noTriton	MARV entry inh	NS1 inh	SARS PLpro yeast	2A StopGo	Lassa entry inh	Cruzain Triton	RE007 growth inh
CCOC(=O)c1ccc(N2C(=O)c3n[nH]c(-c4ccco4)c3C2c2ccc(OCC)cc2)cc1 (stereo not given)	13.6%	11.2µM*	/	/	?	/	-29.2%	/
CC(C)[N+](C)(CCC(C(N)=O)(c1ccccc1)c1ccccc1)C(C)C	-4.1%&-5.7%	/	0.2%	-0.3%	0.0%&-0.1%	/	1.6%&2.1%	-6.2%
Cc1nc2ccn(Cc3ccco3)c(=O)c2cc1C(=O)NCc1ccc(F)cc1	10.0%	/	/	/	-8.9%	?	-4.4%	/
COC(=O)c1sccc1S(=O)(=O)N(CC(=O)Nc1ccccc1)c1ccccc1	-11.2%	/	/	/	3.5%	20.8%[46.1 µM]	-4.4%	/
CCNc1cc(N2CCCC2)ccc1[N+](=O)[O-]	11.1%	-11.2%	-2.4%	1.9%	-8.4%	2.8%	-11.6%	-6.3%
O=C(c1ccc(F)cc1)n1nc(-c2ccc(Cl)cc2)nc1NCc1ccco1	13.1%	?	/	/	0.0%	15.6%[46.1 µM]	-3.6%	/
Cn1cnnc1SCc1ccc(C(=O)N=Nc2c(O)n(Cc3ccc(Cl)cc3)c3ccccc23)cc1	11.9%	?	?	2.0%	-25.5%	?	-3.4%	-1.5%
O=C(NN=Cc1ccc2c(c1)OCO2)C1CC1	/	?	/	/	22.6%	?	/	-15.9%

More results:
structure	Cruzain noTriton	MARV entry inh	NS1 inh	SARS PLpro yeast	2A StopGo	Lassa entry inh	Cruzain Triton	RE007 growth inh
S=c1ccc2ccccc2[nH]1	/	/	2.2%	15.2%	7.6%	/	/	32.6%
COc1ccc(-c2nc(CS(=O)CC(=O)NC3CCCc4ccccc43)c(C)o2)cc1OC (stereo not given)	?	2.3%	-15.7%	1.0%	-17.7%	/	-2.1%	-2.4%
Cc1cc(C)c(C#N)c(N2CCN(c3ccccc3F)CC2)n1	/	/	-25.0%	-0.6%	-10.7%	/	/	-16.2%
Cc1ccc(NC(=O)C2Cc3ccccc3O/C2=N\O)cc1C (stereo not given)	/	?	1.5%	1.5%	21.4%	17.4%[46.1 µM]	/	11.9%
Cc1c(N(C(=O)c2ccccn2)C2(C(=O)NC3CCCCC3)CCCCC2)c(=O)n(-c2ccccc2)n1C	/	-14.3%[46.1 µM]	/	0.6%	-2.8%	5.2%	/	3.8%
COc1ccc2c(c1)CCC/C2=N\Nc1nc(C(=O)NN)cs1	/	6.1%[46.1 µM]	8.91µM*	-0.9%	8.9%	-5.7%	/	-11.1%
C=C(C)Cn1c(SCC(=O)NCc2ccco2)nc2sc3c(c2c1=O)CCC3	4.5%	-20.6%	-16.0%	0.1%	-4.2%	18.7%	-12.3%	1.9%
COc1ccc(C(=O)c2cc([N+](=O)[O-])ccc2N2CCOCC2)cc1	-15.0%	?	11.9%	-0.4%	-11.6%	?	-8.3%	-7.3%
C=CCC(CC=C)(CNC(=O)C(=O)Nc1cc(C)ccc1OC)c1ccc(OC)c(OC)c1	?	-17.8%[46.1 µM]	/	/	0.0%	?	1.5%	/
N#C/C(=C/c1ccc(N2CCCCCC2)o1)c1cccc(F)c1	?	?	-8.2%	-21.2%	-46.5%	3.4%	-14.4%	?
CC(CCc1ccccc1)NC(=S)NC(=O)c1ccco1 (stereo not given)	/	14.8%[46.1 µM]	6.9%	-0.6%	-7.3%	?	/	13.2%
